From PubChem BioAssay
V. cholerae QS: Vibrio cholerae quorum sensing activators, luminescence (AID 686977); luminescence at 50 µM unless noted, or EC50 in µM where a hit was titrated; V. cholerae quorum sensing reporter, luminescence, 6 h; higher luminescence means a stronger effect; most inactives read 0; 9,400 tested, under 10 active;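 active = light above mean plus 3 SD and confirmed in a dose series; inconclusive = above that limit without a clear retest; inactive = below it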;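 note: raw light counts without normalisation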
* = called active by the depositor; ? = inconclusive; [ ] = dose if it differs, or a comment.

mol,V. cholerae QS
COc1cccc(C2CC(c3ccccc3OC)n3ncnc3N2)c1 (stereo unspecified),0
CCn1cc(C(=O)c2ccccc2)c2ccccc21,0
CCOC(=O)N1CCC(c2cc(=O)n3[nH]c(C)c(-c4ccc(F)cc4)c3n2)CC1,40
COc1cc2c(cc1OC)C(c1ccc3c(c1)OCO3)C1=C(CC(C)(C)CC1=O)N2 (stereo unspecified),0
c1ccc(Oc2ccc(-n3cnnn3)cc2)cc1,0
Cc1ccc(CCNC(=O)C2CCC(=O)N2C2CCCC2)cc1 (stereo unspecified),240
Cc1ccccc1N(CC(=O)Nc1ccccc1C(=O)O)S(C)(=O)=O,240
CCCC(O)(CCC)C(=O)NN1CCCCC1,40
O=C(NCCCN1CCOCC1)c1cc(-c2ccc3c(c2)OCO3)nc2ccccc12,40
Cc1ccc(C)c(CSc2nnc(CCN)o2)c1,0
O=C(NC1CCCCCC1)C1CCN(S(=O)(=O)c2cccc3cccnc23)CC1,0
Cc1ccc(-c2csc(NC(=O)c3cccc(N4C(=O)CCC4=O)c3)n2)o1,40
COc1ccc(Cl)cc1S(=O)(=O)n1ccnc1C(C)C,0
Cc1ccc(C)c(N2CCN(C(=O)CCCn3c(=S)[nH]c4cc5c(cc4c3=O)OCO5)CC2)c1,0
Cc1ccc(S(=O)(=O)NCCCN2CCOCC2)c(C)c1,0
O=C(NCc1ccc(N2CCCC2=O)cc1)c1cnccn1,280
CCSc1ccc2c(c1)N(CCCN1CCN(C)CC1)c1ccccc1S2,0[10 µg/mL]
Cc1nn(C)c(C)c1S(=O)(=O)N1CCC(C(=O)NCCC2=CCCCC2)CC1,280
COc1ccc(C2=C(Nc3ccc(F)cc3)c3ccccc3C2=O)cc1,0
O=C(Nc1ccccc1-c1ccccc1)c1ccc(NC(=O)c2ccco2)cc1,0
Cc1cc(C)c(NC(=O)CSc2nnc(-c3ccncc3)n2Cc2ccco2)c(C)c1,0
CCC(=O)N1c2ccc(S(=O)(=O)CCC(=O)NCc3ccc4c(c3)OCO4)cc2CC1C (stereo unspecified),0
Cc1cccc(N2C(=O)SC(N(CC(=O)O)c3cccc(C)c3)C2=O)c1 (stereo unspecified),0
Cc1ccccc1NC(=O)CSC1=C(C#N)C(c2ccsc2)CC(=O)N1 (stereo unspecified),40
O=C(c1ccccc1)N1CCc2ccccc21,240
CCOc1ccc(-n2c(SCC(=O)NCc3ccco3)nnc2-c2c[nH]c3ccccc23)cc1,0
c1ccc(-n2c(-c3ccco3)nnc2-c2ccco2)cc1,40
CC(c1nnc(SCC(=O)NC(=O)NCc2ccco2)n1-c1ccc(Cl)cc1)N(C)C (stereo unspecified),0
COc1ccc(-c2noc(CN3CCN(c4ccccc4)CC3)n2)cc1,80
CC(=O)c1cccc(NC(=O)CC2Oc3ccc(C)cc3NC2=O)c1 (stereo unspecified),40
Fc1ccc(-c2nnc(CN3CCN(c4ncc(C(F)(F)F)cc4Cl)CC3)o2)cc1,0
CCOC(=O)c1csc(NC(=O)c2ccccc2)n1,40
CCCc1[nH]n(-c2nc3ccccc3s2)c(=O)c1C=NCCN1CCOCC1,0
CCn1c(=NC(=O)CN2C(=O)CCC2=O)sc2c(C)cc(C)cc21,0
O=C(COc1ccccc1)NCC(=O)Nc1ccc(S(=O)(=O)NCc2ccco2)cc1,80
CCCC(c1nnnn1CCc1ccccc1)N1CCN(C(=O)c2ccco2)CC1 (stereo unspecified),0
COc1cc(-c2nc3ccccc3s2)ccc1O,0
CCc1nnc(NC(=O)Cc2ccc(OC)cc2)s1,?
CCOc1ccc2oc(C(=O)OCC(=O)NC(=O)NC3CCCC3)c(C)c2c1,0
COc1ccc(C2(CNC(C)=O)CCOCC2)cc1OC,0
COC(=O)c1ccc(C2C(C(=O)Nc3ccc(C)cc3C)=C(C)Nc3ncnn32)cc1 (stereo unspecified),0
C/C(=C\C(=O)O)CC(=O)O,0
COc1ccc(-c2ccc(C#N)c(SCC(=O)Nc3sc4c(c3C#N)CCC4)n2)cc1OC,0
OC(CCN1CCCC1)(c1ccccc1)C1CCCCC1 (stereo unspecified),0[10 µg/mL]
CCOC(=O)N1CCN(C(=O)c2ccc3c(SCC(=O)O)c4c(nc3c2)CCCC4)CC1,0
COc1ccc(OCCSc2ncnc3nc[nH]c23)cc1,0
C[C@]1(OC(=O)/C=C/c2ccccc2)C[C@@H](O)[C@]2(O)C=CO[C@@H](O[C@@H]3O[C@H](CO)[C@@H](O)[C@H](O)[C@H]3O)[C@@H]21,40[10 µg/mL]
CS(=O)(=O)c1ccc2nc(NC(=O)Oc3ccccc3)sc2c1,0
Cc1nc(N(C)C)c2sc(=S)n(C)c2n1,0
Cc1onc(-c2ccccc2Cl)c1C(=O)Nc1cccc(-c2nc3ncccn3c2C)c1,40

(more compounds)
mol,V. cholerae QS
Cc1cc(C)nc(SCCC(=O)Nc2ccccc2)n1,40
CS(=O)(=O)c1ccc(N)cc1,0
CSCCC1NC2(C(=O)Nc3ccc(Cl)cc32)[C@@H]2C(=O)N(C3CCCC3)C(=O)[C@H]12 (stereo partly specified),80
CCCCCNc1nc(NCCCO)c(C#N)c2c1CN(C)CC2,40
Cn1c(COc2ccccc2)nnc1SCCN1CCOCC1,240
Cn1c(/C(C#N)=C/Nc2ccccn2)nc2ccccc21,0
COc1cc(OC)c(C#N)c(S(=O)Cc2ccccc2)c1 (stereo unspecified),40
COC(=O)CN1C(=O)C(O)(CC(=O)c2ccc(C)cc2)c2cc(Br)ccc21 (stereo unspecified),0
Fc1cccc(Nc2nc3ccccc3n3nnnc23)c1,0
Cc1ccc2cc(CN(Cc3ccc(F)cc3)Cc3nnnn3C3CCCC3)c(=O)[nH]c2c1,0
COc1ccc(OC)c(S(=O)(=O)Nc2cccc(F)c2)c1,0
O=C(Nc1cccc(F)c1)c1ccc2c(c1)OCO2,40
CCOC(=O)c1c(NC(=O)c2ccco2)sc2c1CCCC2,0
O=C(CCSc1ccc(Cl)cc1)c1cccs1,120
Cc1oc(-c2ccc(Cl)cc2)nc1CN1CCCC(C(=O)NCCCN2CCCC2=O)C1 (stereo unspecified),0
CC(=O)C1=C(C)OC(N)=C(C#N)C1c1ccncc1 (stereo unspecified),0
O=C(CSc1nnnn1-c1ccccc1)Nc1nc(-c2ccccc2)ns1,0
COC(=O)Cc1c(C)c2ccc(OCc3nn[nH]n3)c(C)c2oc1=O,0
Cn1c(=O)c2c(nc(SCC(=O)Nc3ccccc3)n2C)n(C)c1=O,0
CN1c2ccccc2C(C)(C)C12CC(CCl)=NO2 (stereo unspecified),0
O=C(c1cnn2ccccc12)N1CCN(C2CCCCC2)CC1,0
COCCn1c(=O)[nH]c2cc(C(=O)NCCc3ccc(OC)c(OC)c3)ccc2c1=O,40
Cc1sc(NC(=O)CSc2nnc(-c3ccccc3)o2)c(C#N)c1C,40
COCCCNC(=O)c1cc2c(-c3ccc(Cl)cc3)nn(C)c2s1,0
C=CCNc1ncnc2c1cnn2-c1cccc(C)c1,0

Looked up above.
Under V. cholerae QS, Cn1c(/C(C#N)=C/Nc2ccccn2)nc2ccccc21 reads 0
Under V. cholerae QS, Cc1cc(C)nc(SCCC(=O)Nc2ccccc2)n1 reads 40
Under V. cholerae QS, Cc1sc(NC(=O)CSc2nnc(-c3ccccc3)o2)c(C#N)c1C reads 40
Under V. cholerae QS, Cn1c(=O)c2c(nc(SCC(=O)Nc3ccccc3)n2C)n(C)c1=O reads 0
Under V. cholerae QS, Cc1ccc2cc(CN(Cc3ccc(F)cc3)Cc3nnnn3C3CCCC3)c(=O)[nH]c2c1 reads 0

Rewritten with each value named: part of the list above.
CS(=O)(=O)c1ccc2nc(NC(=O)Oc3ccccc3)sc2c1
  V. cholerae QS = 0

Cc1nc(N(C)C)c2sc(=S)n(C)c2n1
  V. cholerae QS = 0

Other records.
canonical_smiles | V. cholerae QS
COC(=O)C1=C(C)n2cnnc2NC1c1ccc(Cl)cc1 (stereo unspecified) | 0
O=C(NCc1cccs1)c1cnc2sccn2c1=O | 40
Cc1cc2n(n1)C(c1sccc1C)Nc1c(C)cccc1-2 (stereo unspecified) | 0
O=C(Cn1nnc2ccccc2c1=O)Nc1ccc2c(c1)CCC2 | 0
CC[C@H]1OC(=O)[C@H](C)[C@@H](O[C@H]2C[C@@](C)(OC)[C@@H](O)[C@H](C)O2)[C@H](C)[C@@H](O[C@@H]2O[C@H](C)C[C@H](N(C)C)[C@H]2O)[C@](C)(O)C[C@@H](C)[C@@H]2N[C@@H](COCCOC)O[C@H]([C@H]2C)[C@]1(C)O | 0[10 µg/mL]
C#C[C@]1(OC(C)=O)CC[C@H]2[C@@H]3CCC4=C[C@@H](OC(C)=O)CC[C@@H]4[C@H]3CC[C@@]21C | 40[10 µg/mL]
CSc1cccc(NS(=O)(=O)c2ccccc2)c1 | 40
Cc1csc2nc(CCNS(=O)(=O)c3ccc4c(c3)OCCO4)cn12 | 0
O=C(NCCn1ccc2ccccc21)c1ccc2c(c1)OCO2 | 0
COc1ccc2c(c1)c1ncn(CCCN3CCOCC3)c(=O)c1n2C | 0
CCOC(=O)CSc1nc2c(c(=O)[nH]c(=O)n2C)n1CCCc1ccccc1 | 40
O=C(Nc1ccncc1)C1CCCN(S(=O)(=O)c2cccc3cccnc23)C1 (stereo unspecified) | 0
COc1cccc(C(c2sc3nc(C)nn3c2O)N2CCN(C(=O)c3ccco3)CC2)c1 (stereo unspecified) | 0
Cc1[nH]c2ccccc2c1NC(=O)CN1CCN(Cc2ccc3c(c2)OCO3)CC1 | 0
COc1cc(/C=N/NC(=O)CCc2c(C)n[nH]c2C)cc(OC)c1OC | 280
N#Cc1nc(-c2ccc(Cl)cc2)oc1NCCc1ccccn1 | 40
Cc1cc(C)c(NC(=O)C2CCCCN2C)c(C)c1 (stereo unspecified) | 0
CCOC(=O)Cn1c(=NC(=O)CSC(C)=O)sc2cc(F)ccc21 | 40
Cn1nc(-c2ccc(Cl)cc2)c2cc(C(=O)N3CCCC3)sc21 | 40
Cn1cccc1Cc1nnc(SCC(=O)NC2CCCCC2)n1-c1ccc(F)cc1 | 0
CCOc1ccccc1C(=O)N(CCC(=O)OC)c1ccccn1 | 0
COC(=O)c1cc(Br)c(=O)n(-c2ccccn2)c1 | 40
O=c1cccc2n1CC1CNC[C@H]2C1 | 0[10 µg/mL]
O=S(=O)(c1cccc(S(=O)(=O)N2CCC(n3nnc4ccccc43)CC2)c1)N1CCCCC1 | 0
COc1ccc(OC)c(S(=O)(=O)N2CCN(c3c(C)cccc3C)CC2)c1 | 0
CC(=O)OC1c2ccccc2C(=O)N1Cc1ccccc1Cl (stereo unspecified) | 0
NC(CO)C(=O)NNCc1ccc(O)c(O)c1O (stereo unspecified) | 40[10 µg/mL]
Cc1nn(CC#N)c(=O)n1-c1cccc(F)c1 | 0
COCCn1c(CN2CCN(c3cccc(Cl)c3)CC2)nc2c1c(=O)n(C)c(=O)n2C | 40
Nc1nnc(SCC(=O)N2CCN(c3ccccc3)CC2)s1 | 0
O=C(CN(C(=O)c1ccc2c(c1)OCCO2)c1ccccc1)NCC1CCCO1 (stereo unspecified) | ?
COC(=O)c1sccc1NC(=O)c1ccc(Br)o1 | 0
CS(=O)(=O)c1ccc([C@@H](O)[C@@H](CO)NC(=O)C(Cl)Cl)cc1 | 0[10 µg/mL]
COc1cccc(CNC(=O)Cn2cc3c(n2)CCCC3)c1 | 0
CC(C)(C)C(=O)Nc1cc2nn(-c3ccccc3)nc2cc1Cl | 0
COc1cc(C(=O)Nc2ccc3c(c2)OCCO3)ccc1OC(F)F | 0
C[C@H]1[C@H](NC(=O)/C(=N\OC(C)(C)C(=O)O)c2csc(N)n2)C(=O)N1S(=O)(=O)O | 0[10 µg/mL]
CCOC(=O)c1cnn(-c2nc3c(C)cccc3s2)c1C(F)(F)F | 0
C/C(=C\c1ccccc1)C(=O)n1nnc2ccccc21 | 0
O=C(C[n+]1ccc(C(=O)N/N=C/c2ccc(OCc3ccccc3)cc2)cc1)c1ccccc1 | 0
Cc1ccccc1C(=O)Nc1ccc2nc3n(c(=O)c2c1)CCC3 | 40
Cn1c(NC(=O)c2ccccc2C(F)(F)F)cc(=O)n(C)c1=O | 40
O=C(O)CCc1ccc(S(=O)(=O)N2CCOCC2)cc1 | 40
Cn1c(NC(=O)c2ccc3c(c2)OCO3)cc(=O)n(C)c1=O | 40
CN(C)c1ccc(/C=N/n2ncc3ccccc32)cc1 | 0
Cc1onc(-c2ccccc2)c1C(=O)Nc1ccc(S(=O)(=O)N2CCCCC2)cc1 | 40
COc1cc(NC(=O)c2nnn(Cc3ccc(SC)cc3)c2N)cc(OC)c1 | 0
COc1ccc(S(=O)(=O)Nc2ccccc2C(=O)NCc2ccco2)cc1 | 40
CN(C)C(=O)NC(Nc1ccc(Cl)cc1Cl)C(Cl)(Cl)Cl (stereo unspecified) | 40
Cc1ccc(C(=O)Nc2cc(C)c(OCC(=O)N3CCOCC3)c(C)c2)cc1 | 40
COC(=O)[C@H](C)NC(=O)Nc1ccc(OC(F)(F)F)cc1 | 0
CCCCn1c(=O)n(CC(=O)Nc2c(CC)cccc2CC)c(=O)c2c1nc(CO)n2CCC | 0
Cc1ccc(C(=O)OCc2ccc3c(c2)OCO3)cc1S(=O)(=O)N1CCCCC1 | 0

In a second layout: results already given.
Cc1onc(-c2ccccc2)c1C(=O)Nc1ccc(S(=O)(=O)N2CCCCC2)cc1
- V. cholerae QS: 40

COc1cc(NC(=O)c2nnn(Cc3ccc(SC)cc3)c2N)cc(OC)c1
- V. cholerae QS: 0

COc1ccc(S(=O)(=O)Nc2ccccc2C(=O)NCc2ccco2)cc1
- V. cholerae QS: 40

CN(C)C(=O)NC(Nc1ccc(Cl)cc1Cl)C(Cl)(Cl)Cl (stereo unspecified)
- V. cholerae QS: 40

These rows are one share of the data. The share of hits here may be higher or lower than overall.
